HNF4A DNA FP: change in binding of human HNF4 alpha to DNA; P41235; HNF4a-FITC DNA binding, fluorescence polarization, 1 h; activity change, % at 10 µM; actives 0.3% (n = 360,000); AID 1224865; in the data active = activity change above about 30%, passing the limit was not always enough;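 also: controls were the assay level and a saturating level of protein; the project sought stronger binding though the title names inhibitors; some compounds called inactive have numbers as strong as hits; positive values seem to mean higher polarization but the record does not say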
Target sequence (P41235 whole entry, looked up): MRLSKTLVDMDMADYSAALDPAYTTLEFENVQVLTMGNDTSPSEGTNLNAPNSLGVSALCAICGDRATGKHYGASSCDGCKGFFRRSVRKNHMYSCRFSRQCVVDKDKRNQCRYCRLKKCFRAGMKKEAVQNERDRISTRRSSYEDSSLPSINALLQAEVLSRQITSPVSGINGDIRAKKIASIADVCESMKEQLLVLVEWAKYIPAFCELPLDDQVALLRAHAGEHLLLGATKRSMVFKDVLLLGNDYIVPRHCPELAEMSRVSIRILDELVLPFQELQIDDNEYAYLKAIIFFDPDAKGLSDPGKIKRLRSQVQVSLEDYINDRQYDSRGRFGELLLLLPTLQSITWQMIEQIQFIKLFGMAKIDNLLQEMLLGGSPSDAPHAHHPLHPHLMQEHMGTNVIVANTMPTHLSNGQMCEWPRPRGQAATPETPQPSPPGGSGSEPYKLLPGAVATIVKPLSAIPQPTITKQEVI
AF4-AF9 inh: MLL-AF4/AF9 protein interaction inhibition; P42568; AlphaScreen, biotin-AF4 peptide binding to FLAG-AF9; inhibition, % at 10 µM; actives 0.47% (n = 350,000); AID 651704;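 active = every replicate reaching a set inhibition limit, whatever the replicate mean, cut at about 25% in these data; inconclusive = mean inhibition reaches that limit but some replicates miss it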;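 also: 0% = plate neutral control median and 100% = total signal loss; the record names both 10 and 1 µM as test concentration; the first replicate is given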
FGF22 binding: binders of recombinant human FGF22 by thermal shift; SYPRO orange fluorescence; percent of sucrose octasulfate shift, DMSO zero; actives 1.5% (n = 340,000); calls only at 9.99 µM; Q9HCT0;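 active = melting point raised past a set limit in the mean and every replicate; inconclusive = no clear call; three in four hits are not shown here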
Target sequence (Q9HCT0 whole entry, looked up): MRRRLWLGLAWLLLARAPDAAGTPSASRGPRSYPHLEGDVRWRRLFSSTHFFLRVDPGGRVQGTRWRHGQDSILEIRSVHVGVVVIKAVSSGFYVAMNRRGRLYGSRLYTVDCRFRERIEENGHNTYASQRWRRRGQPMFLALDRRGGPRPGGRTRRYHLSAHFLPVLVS
RanGTP-Impb inh: inhibitors of RanGTP-importin-beta interaction, primary screen, biochemical, FRET, CFP-Ran, YFP-importin-beta, homogeneous. inhibition, % (no concentration beside the values). actives 1.1% (n = 300,000). cell-free CFP-Ran/YFP-importin-beta FRET ratio;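 active = most replicates above 15%; inconclusive = exactly half above 15%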;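 also: 0% = DMSO wells and 100% = Ran loaded with GDP instead of GTP; wells of about 40 µL received 100 nL stock; the first replicate is given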
Ecoli growth: E. coli growth inhibition. Escherichia coli growth, OD600, 23 h; stronger effect = lower value. OD600 absorbance (test concentration not listed). actives 0.21% (n = 330,000). AID 1053175;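 active = OD600 absorbance below the run mean of sample wells minus 3.6 SD, in any replicate, cut at about 0.56 in these data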;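 also: stock transfer was 300 nL into about 60 µL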
Vif A3G: inhibitors of Vif binding to APOBEC3G peptide, primary screen, biochemical, TR-FRET, GST-Vif 1-94, biotin-A3G peptide, dose response retest (AID 1117319); TR-FRET GST-Vif / biotin-A3G peptide binding; higher % means a stronger effect; test concentration not given here; strong numbers were not always called active; inhibition, %, or IC50 in µM where a hit was titrated; actives 0.57% (n = 260,000);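 active = above the screen mean plus three standard deviations and confirmed in dose response; inconclusive = results disagree or hit not tested in dose response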;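 also: Vif residues 1-94 fused to GST binding biotinylated APOBEC3G peptide 110-148; 0% = full assay without inhibitor and 100% = GST in place of GST-Vif; retest series ran down from 100 µM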
UCH37 inh: human UCH37 deubiquitinating enzyme inhibition; actives 0.33% (n = 330,000); Q9Y5K5; purified proteasome/UCH37, Ub-AMC cleavage fluorescence; inhibition, % (test concentration not listed);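 active = mean of two replicates above 20%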;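 also: 0% = compound-free wells with enzyme and 100% = wells lacking proteasome; stock transfer was 100 nL into about 20 µL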
Target sequence (Q9Y5K5 whole entry, looked up): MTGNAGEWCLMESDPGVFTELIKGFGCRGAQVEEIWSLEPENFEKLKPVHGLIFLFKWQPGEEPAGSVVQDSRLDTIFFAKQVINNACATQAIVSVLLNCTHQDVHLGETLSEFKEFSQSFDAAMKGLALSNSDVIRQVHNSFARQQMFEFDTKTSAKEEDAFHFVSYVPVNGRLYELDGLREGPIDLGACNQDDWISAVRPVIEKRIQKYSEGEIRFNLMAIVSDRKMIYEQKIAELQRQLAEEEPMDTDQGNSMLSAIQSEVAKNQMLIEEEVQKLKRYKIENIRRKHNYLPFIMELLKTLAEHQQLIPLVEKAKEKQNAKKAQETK
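Material: human UCH37 enzyme supplied as purified proteasome complex. Measure: % inhibition of Ub-AMC cleavage fluorescence. Medium: pH 7.4 Tris-HCl (50 mM) with ovalbumin, ATP-MgCl2, DTT. Times: 30 min preincubation with enzyme, 25 min cleavage at room temperature. Detection: AMC fluorescence intensity at 355/460 nm.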
Numbers without * were called inactive; i = inactive; ? = inconclusive; nt = not tested or not shown; & = joins results of further samples.

smiles,HNF4A DNA FP,AF4-AF9 inh,FGF22 binding,RanGTP-Impb inh,Ecoli growth,Vif A3G,UCH37 inh
Cc1ccc(/C=C/C(=O)O)cc1S(=O)(=O)N1CCC(Cc2ccccc2)CC1,4.0,9.9,i,0.2,0.7,2%,1.8
CCCS(=O)(=O)c1c(S(=O)(=O)CCC)c2c(C)cccn2c1C(=O)N/N=C/c1cc(O)cc(O)c1,0.3,6.9,i,3.6,nt,23%,nt
CC(=O)c1cc(C#N)c(SCC(=O)OC(C)(C)C)nc1C,2.0,nt,nt,0.4,0.73,-23%,1.6
COc1nc(Nc2ccccc2)nc(OC)n1,1.4,-0.4,i,0.9,0.67,nt,5.3
Cc1cccc(NC(=O)c2cc([N+](=O)[O-])ccc2N2CCOCC2)c1C,3.7,3.2,i,nt,nt,4%,nt
Cc1ccc(-n2c(SCC(=O)N3CCN(c4ccccn4)CC3)nnc2N2CCCC2)cc1,2.8,1.7,i,nt,0.68,-1%,-3.6
COC(=O)c1cn(NC(=O)c2ccc([N+](=O)[O-])cc2Cl)c(=O)c2ccccc12,-1.0,-1.1,i,0.8,0.69,nt,-0.4
COc1cccc(Oc2ccc(C(F)(F)F)cc2NC(=O)C2=COCCO2)c1,0.9,-1.4,i,-2.2,0.73,-5%,0.7
CCOc1ccc(CN2CCN(C/C=C/c3ccc(OC)cc3)CC2CCO)cc1 (stereo not drawn),0.4,5.9,i,1.8,0.71,nt,3.2
CCOC(=O)N(C)C[C@H]1OCc2cnnn2CCCC(=O)N([C@@H](C)CO)C[C@@H]1C,7.0,-6.2&0.1,i,nt,nt,nt,nt
Cc1ccc(N2C(=O)CC(n3nc(C)cc3C)C2=O)cc1 (stereo not drawn),1.2,nt,nt,-5.1,0.7,2%,-1.2
CCC(C)NC(=O)COc1ccc(OCc2ccccc2)cc1 (stereo not drawn),0.1,0.2,i,-0.6,0.71,10%,1.5
Cc1ccccc1C(=O)N1CCN=C1SCc1ccc([N+](=O)[O-])cc1,-2.4,8.6,i,-0.9,0.67,4%,3.1
CCC(=O)c1ccc(OC(=O)/C=C/c2cc(OC)c(OC)c(OC)c2)cc1,2.5,1.1,i,?,0.65,4%,-33
CC(=O)Cn1ncc(N2CCCCC2)c(Cl)c1=O,1.1,-3.2,i,6.8,0.71,0%,5.5
COCc1c(C(=O)NCc2ccccc2CN2CCCC2)oc2ccccc12,0.1,0.2,i,nt,0.7,nt,7.1
CC[C@@H](C(=O)n1nc(C)cc1C)[C@H](NS(=O)(=O)c1ccc(C)cc1)c1ccccc1,1.2,nt,nt,0.1,0.77,-1%,4.2
O=C(Nc1cccc(C(F)(F)F)c1)n1cc(-c2ccccn2)c(N2CCOCC2)n1,-4.1,-1.7,i,1.5,0.63,-4%,4.2
CC(C)N(CCNC(=O)C1CCN(S(=O)(=O)N2CCOCC2)CC1)Cc1ccccc1,2.6,nt,nt,-2.6,0.72,?,-3.1
O=C(COc1ccccc1)NCC(=O)N/N=C/C=C/c1ccccc1,-0.4,1.9,i,7.9,nt,-1%,nt
CCC(C)(C)C(=O)Nc1ccc(OC)cc1[N+](=O)[O-],-2.2,1.2,i,1.2,0.64,0%,2.7
O=C1c2cccnc2C(O)N1Cc1ccco1 (stereo not drawn),1.0,nt,nt,0.8,0.67,8%,0.4
Cc1ccccc1-c1noc(-c2ccccc2F)n1,0.0,2.9,i,?,0.7,1%,1.5
CO[C@H]1C=CO[C@@]2(C)Oc3c(C)c(O)c4c(O)c(c5c(nc6cc(C)ccn65)c4c3C2=O)NC(=O)C(C)=CC=C[C@H](C)[C@H](O)[C@@H](C)[C@@H](O)[C@@H](C)[C@H](OC(C)=O)[C@@H]1C,nt,nt,nt,-0.4,nt,-5%,7.3
CC(=O)c1ccc(NC(=O)C(C)Sc2nnc(C3CC3)n2C2CC2)cc1 (stereo not drawn),-2.2,0.2,i,nt,0.66,nt,1.5
Cc1ccccc1-c1cccc([C@@H]2C[C@H]3[C@H](CON3C)CN2C(=O)C(C)(C)C)c1,1.0,-0.4,i,nt,nt,nt,nt
COc1cccc(/C=C/c2ccccn2)c1O,-1.9,4.1,i,3.5,0.68,7%,-0.9
O=S(=O)(NC(=S)NC1CCCCC1)c1ccccc1,-2.2,-2.3,i,2.5,nt,-10%,nt
Cc1cc(NCCN2CCOCC2)n2nc(C)c(-c3ccccc3)c2n1,-3.6,nt,nt,-0.3,0.72,-6%,0.1
CCN(CC(=O)Nc1ccc(NC(C)=O)cc1)C(=O)CSc1ncnc2sc(C)c(C)c12,1.9,0.0,i,0.5,0.69,-13%,4.5
O=C(Cc1cccc(NC(=O)C2CCCN(C(=O)C3CC3)C2)c1)Nc1ccc(C(=O)N2CCOCC2)cc1 (stereo not drawn),1.7,-10,i,nt,0.69,-1%,2.4
O=C(CCC1CCCN(C(=O)CCCc2ccccc2)C1)N1CCN(c2ccccn2)CC1 (stereo not drawn),-2.9,-0.1,i,6.3,0.7,5%,-0.3
COc1ccc(OC)c2[nH]c(=O)c(CCNS(=O)(=O)c3ccccc3)cc12,-2.2,nt,nt,1.3,0.71,-6%,nt
COCC(COCCCNC(=O)Nc1ccc(Br)cc1)OC (stereo not drawn),-2.2,nt,nt,1.8,0.69,10%,1.2
COc1ccc(C(NC(=O)C2CCN(CCOc3ccc(Cl)cc3Cl)CC2)c2ccccn2)cc1 (stereo not drawn),1.3,6.1,i,nt,nt,nt,nt
c1cncc(-c2nc(-c3ccc4c(c3)OCCO4)cs2)c1,4.2,-1.0,i,?,0.67,-15%,1.9
COc1ccc(OCC(=O)OCCN(C)C)cc1,-1.0,nt,nt,6.5,0.77,5%,1.3
Cc1ccc(N2CC(C(=O)Nc3nnc(SCCN4CCOCC4)s3)CC2=O)cc1 (stereo not drawn),-2.9,-0.3,i,-0.8,0.69,5%,1.4
COC(=O)c1c(NC(=O)c2ccc(C)o2)sc2c1CCCCC2,3.0,nt,nt,10,0.67,?,-161
CCN(CC)S(=O)(=O)c1ccc2[nH]cc(C(=O)NCCC3=CCCCC3)c(=O)c2c1,-0.7,nt,nt,-1.3,0.72,4%,-2.5
CCN(C(=O)COC(=O)/C=C/c1ccco1)c1c(N)n(Cc2ccccc2)c(=O)[nH]c1=O,4.5,-0.9,i,nt,0.7,7%,6.7
Cc1ccc(S(=O)(=O)O)c(C)c1N1CCCC1=O,3.2,nt,nt,2.3,0.67,-3%,4.8
CCOC(=O)c1ccc(Cl)c(NC(=O)c2ccc(-c3ccccc3)cc2)c1,-3.7,-38,i,-1.0,0.66,?,1.4
COc1cccc(-c2nc(CS(=O)(=O)CC(=O)NCc3ccc(Cl)cc3)c(C)o2)c1,0.4,-2.3,i,1.5,0.74,-4%,-3.0
O=C1CCCN1CC(CN1CCOCC1)Sc1nnnn1-c1ccccc1 (stereo not drawn),-3.0&4.6,-4.3,i,-1.2,0.72&0.69,-5%&-1%,5.5&-1.4
COc1ccc(-c2cc(C(=O)NCc3cccnc3)no2)cc1OC,-1.0,nt,nt,-6.5,0.66,-5%,1.6
NS(=O)(=O)c1cccc(NC(=O)COC(=O)CCC2CCCC2)c1,-0.2,0.0,i,nt,0.66,-10%,-2.1
Cc1ccc(NC(=O)CNc2cc(S(=O)(=O)N3CCOCC3)ccc2NCC2CCCO2)cc1F (stereo not drawn),2.8,-10.0,i,1.1,0.71,nt,5.2
CCOc1ccccc1OCC(=O)Oc1ccc(C)c(C)c1,-3.1,1.3,i,0.1,0.67,nt,3.4
CC(C)C[C@@H](CN)NC(=O)c1nc[nH]c1C(=O)N[C@@H](C)C(=O)CNC[C@H](C)NC(=O)c1nc[nH]c1C(=O)N[C@@H](CC(=O)O)C(=O)O,2.1,-2.1,i,nt,nt,1%,nt
COCCn1c(COc2cccc(OC)c2)nnc1SCC(=O)N1CCOCC1,-2.8,nt,nt,-2.0,0.71,63%,0.9
COc1cc(O)c(C(C)=O)c(CC(=O)O)c1,-15,1.9,i,0.8,nt,nt,nt
NS(=O)(=O)c1ccc(CCNC(=O)CNC(=O)Cc2cccc3ccccc23)cc1,2.4,-1.9,i,1.8,0.68,-5%,6.3
C[C@H]1CN([C@@H](C)CO)S(=O)(=O)c2ccc(Br)cc2O[C@H]1CN(C)C(=O)CCN1CCCCC1,-0.6,-3.0&-1.8,i,nt,nt,-3%,nt
CCCCNC(=O)c1cc(-c2ccc(OC)cc2)on1,-0.5,nt,nt,3.9,0.72,-4%,4.5
CCOCCCNC(=S)Nc1ccc(S(N)(=O)=O)cc1,2.7,nt,nt,0.5,0.69,2%,2.1
O=C(CCC(=O)NNC(=O)Nc1cccc(Cl)c1)NCc1ccccc1,0.1,-0.5,i,2.7,0.68,3%,0.3
Cc1ccc(S(=O)(=O)CCC(=O)OCC(=O)N(C)Cc2ccccc2)cc1,-2.4,2.2,i,nt,0.67,-2%,3.5
COc1ccc(OC)c(C2=NOC(C(=O)NCc3cccnc3)C2)c1 (stereo not drawn),4.7,-1.7,i,5.7,0.62,-6%,2.8
COc1ccccc1C1CC(c2cccs2)=NN1C(=O)CCC(=O)O (stereo not drawn),4.6,1.9,i,-4.1,0.69,-1%,-7.5

Compound profiles, as listed above.
Profile of CCCCNC(=O)c1cc(-c2ccc(OC)cc2)on1 = HNF4A DNA FP = -0.5; AF4-AF9 inh = nt; FGF22 binding = nt; RanGTP-Impb inh = 3.9; Ecoli growth = 0.72; Vif A3G = -4%; UCH37 inh = 4.5
Profile of COc1ccc(OC)c(C2=NOC(C(=O)NCc3cccnc3)C2)c1 (stereo not drawn) = HNF4A DNA FP = 4.7; AF4-AF9 inh = -1.7; FGF22 binding = i; RanGTP-Impb inh = 5.7; Ecoli growth = 0.62; Vif A3G = -6%; UCH37 inh = 2.8

(list continues)
smiles,HNF4A DNA FP,AF4-AF9 inh,FGF22 binding,RanGTP-Impb inh,Ecoli growth,Vif A3G,UCH37 inh
CC(=O)NCCCc1nc2ccccc2n1Cc1cc(C)ccc1C,1.8,0.7,i,-0.4,0.69,6%,0.1
Cc1cc(Br)ccc1NC(=O)CN(C)C(=O)c1cccc(S(=O)(=O)N2CCN(C)CC2)c1,-0.5,2.5,i,nt,0.68,nt,4.5
O=C(Nc1ccccc1C(F)(F)F)c1cc2ncc(CCCl)cn2n1,-1.9,nt,nt,0.3,0.68,23%,-6.1
COc1ccc2c(c1)CCc1c(C(=O)N(C)c3ccccc3)noc1-2,-1.1,-0.5,i,0.1,0.69,-4%,1.9
O=C1c2ccccc2C(O)N1c1cccnc1 (stereo not drawn),0.9,-8.1,i,0.8,0.7,-4%,1.2
COc1ccc(CNC(=O)c2oc3ccc(S(=O)(=O)N4CCOCC4)cc3c2C)cc1,-1.2,2.1,i,-0.1,0.71,nt,-1.1
COc1ccc(OC)c(CCNC(=O)c2ccc(CS(=O)Cc3ccc(Cl)cc3)o2)c1 (stereo not drawn),4.4,3.3,i,2.1,0.69,-2%,3.3
CCCCN(CCCC)CCNC(=O)c1cn(C)c2ccc(S(=O)(=O)N(C)C3CCCCC3)cc2c1=O,0.3,4.0,i,5.7,0.72,nt,3.9
COC(=O)c1nn(-c2cccc(Cl)c2)cc(OC)c1=O,-3.3,-0.2,i,1.2,0.72,1%,5.8

High-throughput results as filed in PubChem BioAssay.

Not all compounds are listed; count on the stated rates, not on these rows.
